RecA splice inh: Mtb RecA intein splicing inhibition; P9WHJ3; cell-free RecA intein splicing, fluorescence; inhibition, %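 (about 9 µM by stock and volumes)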; hit rate 0.75% among 290,000; AID 2221; in the data active means inhibition above about 30%; inconclusive means no clear call, values can overlap the other calls;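 further: 0% = vehicle wells and 100% = reference inhibitor control wells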
Target sequence (P9WHJ3 whole entry, looked up, canonical isoform): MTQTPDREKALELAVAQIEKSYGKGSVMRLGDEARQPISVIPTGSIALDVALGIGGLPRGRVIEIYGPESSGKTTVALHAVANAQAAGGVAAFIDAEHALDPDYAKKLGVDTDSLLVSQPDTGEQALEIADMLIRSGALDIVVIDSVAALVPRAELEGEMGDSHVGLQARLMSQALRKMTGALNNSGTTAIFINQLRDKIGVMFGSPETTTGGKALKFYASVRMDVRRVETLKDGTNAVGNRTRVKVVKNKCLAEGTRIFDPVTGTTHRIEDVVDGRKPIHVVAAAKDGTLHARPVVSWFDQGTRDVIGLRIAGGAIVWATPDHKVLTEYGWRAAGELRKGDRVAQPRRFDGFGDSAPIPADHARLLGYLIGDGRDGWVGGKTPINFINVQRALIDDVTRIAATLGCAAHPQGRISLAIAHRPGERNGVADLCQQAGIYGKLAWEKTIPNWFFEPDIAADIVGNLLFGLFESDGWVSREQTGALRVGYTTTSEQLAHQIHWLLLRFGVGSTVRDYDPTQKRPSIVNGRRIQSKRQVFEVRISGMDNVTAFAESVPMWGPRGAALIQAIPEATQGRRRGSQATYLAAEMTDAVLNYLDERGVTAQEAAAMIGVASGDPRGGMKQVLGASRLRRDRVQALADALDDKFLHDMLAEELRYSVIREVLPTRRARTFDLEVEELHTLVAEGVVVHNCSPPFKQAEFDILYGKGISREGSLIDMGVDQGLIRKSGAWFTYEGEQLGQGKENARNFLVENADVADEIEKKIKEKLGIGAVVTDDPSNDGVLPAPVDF
YopH inh: YopH (Yersinia) phosphatase inhibition; fluorescence Ex485/Em525; inhibition, %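 (about 10 µM by stock and volumes)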; hit rate 0.16% among 140,000;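 active means inhibition of 50% or more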;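 further: controls were vehicle for no effect and minimum signal wells for full effect; inactives centre near -20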
Mtb growth: M. tuberculosis H37Rv growth inhibitors, H37Rv strain (AID 1626); inhibition, % at 10 µM, or IC50 in µM where a hit was titrated; M. tuberculosis H37Rv growth inhibition; higher % means a stronger effect; hit rate 0.95% among 220,000;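 active means confirmed in a dose series; inconclusive means inhibition above 80% but not taken into the dose series; inactive means below 80% or under 30% at every dose of the series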;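 further: bacteria incubated seven days before Alamar blue readout; 0% = bacteria only wells and 100% = bacteria with antibiotic wells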
Mtb betalactam: beta-lactam sensitization of Mtb H37Rv; hit rate 0.27% among 330,000; inhibition, % at 25 µM; M. tuberculosis H37Rv growth with meropenem, percent inhibition; hits of this screen are not shown here; AID 434955;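 active means about 74% or more and at least 40 points above the plate without the antibiotic, then above 30% in a dose series; inconclusive means first-round hits that could not be retested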;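 further: growth measured after seven days incubation then overnight dye step; 0% = bacteria only wells and 100% = bacteria with antibiotic; twin plates without the antibiotic show which effects depend on it; some results filed as inactive read as strong as hits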
Arbovirus inh: blocks arbovirus infection; AID 1251; inhibition, % at 10 µM; hit rate 0.37% among 200,000; arbovirus infection cell-based antiviral screen;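 active means inhibition from about 30%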;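 further: bluetongue infection of BSR cells; cell survival read as ATP light after 72 h; 0% = infected wells without compound and 100% = uninfected wells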
Arbovirus inh repeat: further read-out of Arbovirus inh, marked with its call; inhibition, %; measured here: 10K subset replicate screen; many hits read low in the repeat;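 first of two repeat runs on a subset; 0% = infected and 100% = uninfected wells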
* = called active by the depositor; ? = inconclusive; / = not tested or not shown.

SMILES	RecA splice inh	YopH inh	Mtb growth	Mtb betalactam	Arbovirus inh	others
COC(=O)C1=C(N)N(c2ccc(F)cc2)C2=C(C(=O)CCC2)C1c1ccc2c(c1)OCO2 (stereo not given)	-3.7	-24	/	1	-1	Arbovirus inh repeat=-1
N/C(=N\OC(=O)COc1ccc2ccccc2c1Br)c1ccccn1	8.7	/	-23%	2	9
CCOC(=O)Cc1ncccc1C(=O)Nc1ccc(OC(F)(F)F)cc1	-7.3	/	-2%	8	4
COc1ccc(-c2nn(-c3ccccc3)cc2/C=N/Nc2ccccn2)cc1	0.6	/	5%	2	-6
COc1cc2ncc(S(=O)(=O)c3ccccc3)c(N3CCC4(CC3)OCCO4)c2cc1OC	0.8	/	-1%	0	-21
O=C(Cn1nnc(-c2ccc(N3CCOCC3)cc2)n1)N1CCOCC1	-0.4	/	-2%	-8	/
Cn1ncc(Br)c1C(=O)N1CCCCCC1	0.2	/	/	-5	/
COc1cc(C)c(NC(=S)Nc2cccc(Cl)c2C)cc1OC	1.5	-20	-2%	-8	-2
O=C(COC(=O)Cc1ccccc1)Nc1ncc(Cl)cc1Cl	2.2	-10	-2%	-13	0
CCOc1ccc(C2C(C(N)=O)=C(C)Nc3ncnn32)cc1OC (stereo not given)	1.1	/	/	-3	/
Cc1cccc(Oc2nc(-c3ccccc3)cc(C)c2S(C)(=O)=O)c1C	14	-14	12%	-7	-17
COc1cccc(NS(=O)(=O)c2ccc3c(c2)n(C)c(=O)c(=O)n3C)c1	-2.3	-2	-2%	-22	6
O=C(CCC(=O)N1CCOc2ccccc21)Nc1ccccc1Cl	1.0	/	/	4	/
COc1cc(C2CC(=O)N(CC(=O)NCC3CCCO3)c3ccccc3S2)cc(OC)c1OC (stereo not given)	1.5	/	-5%	-9	1
O=C(O)CC(Cc1ccc(Cl)cc1)C(=O)NCc1ccccc1 (stereo not given)	-0.3	-14	4%	-2	-2

Reprinted from the part before: five compounds, then new ones.
SMILES	RecA splice inh	YopH inh	Mtb growth	Mtb betalactam	Arbovirus inh	others
Cc1cccc(Oc2nc(-c3ccccc3)cc(C)c2S(C)(=O)=O)c1C	14	-14	12%	-7	-17
COc1cccc(NS(=O)(=O)c2ccc3c(c2)n(C)c(=O)c(=O)n3C)c1	-2.3	-2	-2%	-22	6
O=C(CCC(=O)N1CCOc2ccccc21)Nc1ccccc1Cl	1.0	/	/	4	/
COc1cc(C2CC(=O)N(CC(=O)NCC3CCCO3)c3ccccc3S2)cc(OC)c1OC (stereo not given)	1.5	/	-5%	-9	1
O=C(O)CC(Cc1ccc(Cl)cc1)C(=O)NCc1ccccc1 (stereo not given)	-0.3	-14	4%	-2	-2
CCc1cc(Br)ccc1NC(=S)NCCc1ccccc1	3.2	/	/	0	/
CCCC(C(=O)NC(C)(C)C)N(C(=O)c1snc(C(N)=O)c1N)c1ccc2c(c1)OCCO2 (stereo not given)	4.3	/	3%	1	-9
Cn1c(=O)n(C)c2cc(NC(=O)CSc3nc4ccccc4c(=O)[nH]3)ccc21	0.7	/	/	-5	/
COc1ccc(C2=NCCn3c2c2ccc(C(F)(F)F)cc2[n+]3[O-])cc1	-0.7	/	/	84	/
O=S(=O)(NCc1c(Cl)cccc1Oc1ccccc1)c1ccccc1	12	/	14%	4	/
O=C(CC(c1ccccc1)c1ccccc1O)NCCc1ccccc1 (stereo not given)	4.7	/	/	-12	/
COC(=O)c1ccc(Nc2cc(C)nc(-c3ccccc3O)n2)cc1	0.9	-43	-2%	-4	0
CS(=O)(=O)N1CCN(C(=O)Cc2ccc([N+](=O)[O-])cc2)CC1	0.2	/	/	-2	/
CC1CCCC(NC(=O)C2CCN(S(=O)(=O)N3CCC4(CC3)OCCO4)CC2)C1C (stereo not given)	-4.8	-20	/	4	-6
CCOC(=O)C1CCN(C(=O)CSc2cc(=O)n(CC)c3ccccc23)CC1	0.0	3	-1%	?	-3
CN(C)S(=O)(=O)c1cccc(NC(=O)c2cc(=O)[nH]c3ccccc23)c1	-0.8	/	5%	3	-5
COc1cccc2sc(/N=C/N(C)C)nc12	3.5	/	0%	-8	/
CC(C)(C)C(=O)Nc1ccccc1C(=O)NCCCn1ccnc1	-0.8	/	3%	0	9
CCC(C)NC(=O)C1CCN(S(=O)(=O)c2ccc3[nH]c(=O)ccc3c2)CC1 (stereo not given)	-1.2	/	/	?	/
CCc1sc(C(=O)NC)cc1Br	-0.2	-2	-3%	-15	-2
OCc1ccccc1OCCOc1ccc(Cl)c2cccnc12	1.2	-25	10%	7	8
Cc1ccc(S(=O)(=O)NNC(=O)c2sc(NS(=O)(=O)c3ccccc3)nc2C)cc1	-7.9	/	/	12	/
O=C(NN1C(=O)c2ccccc2NC1c1ccc([N+](=O)[O-])o1)c1ccc(Br)cc1 (stereo not given)	-1.4	/	?	96	-6
Cn1cc(/C=C(\NC(=O)c2ccccc2)C(=O)N2CCOCC2)c2ccccc21	-0.4	/	/	6	/
CCCC1OC23CCCCC2C(C#N)(C#N)C1(C#N)C(=N)O3 (stereo not given)	-328	-10	11%	-5	21
Cc1nn(C)c(Cl)c1CN1CCCC(CCC(=O)NCc2ccccc2F)C1 (stereo not given)	-3.7	/	-6%	3	2
O=c1c2ccccc2nc2ccc(NCc3cccs3)nn12	/	/	0%	-5	2
O=C(COC(=O)c1ccc(-c2nnc(-c3ccccc3)o2)cc1)c1ccccc1	-3.6	-31	21%	30	0
COc1ccc(NC(=O)C2CCCN2S(=O)(=O)c2ccc3c(c2)CC(C)N3C(C)=O)cc1OC (stereo not given)	3.6	/	/	1	/
Cc1ccc2[nH]c(=O)c(C(c3nnnn3Cc3ccccc3)N3CCc4ccccc43)cc2c1 (stereo not given)	14	-18	-5%	2	10
CCCCC(=O)NNC(=S)NC(=O)CCC	4.2	-22	/	-6	0
COc1cc(C=O)ccc1OC(=O)c1ccncc1	/	/	4%	-2	6
O=C1C=C(N2CCCCCC2)C(=O)N1c1ccc(Cl)cc1	2.9	/	/	-3	/
O=S(=O)(c1ccccc1)N1CCN(S(=O)(=O)N2CCCCC2)CC1	1.4	-6	-13%	-1	6
NS(=O)(=O)c1ccc(CCNC(=O)CSc2ccc(Cl)cc2Cl)cc1	0.7	/	18%	-9	/
Cc1coc2c1c(C)cc1oc(=O)c(CC(=O)NCC(=O)N[C@H](C(=O)O)C(C)C)c(C)c12	-2.6	/	/	-7	/
COc1ccc(S(=O)(=O)N2CCCN(CC(=O)C(C)(C)C)CC2)cc1	-1.9	-7	/	-2	5
CCOC(=O)c1ccc(NC(=O)NC(C)C2CCCO2)cc1 (stereo not given)	0.7	-2	-4%	7	-2
CC(C)CCNC(=O)C(=O)Nc1ccccc1	-1.0	/	-5%	-6	3
Cn1c(=O)n(C)c2cc([N+](=O)[O-])c(N3CCN(C(=O)c4ccc(Cl)cc4)CC3)cc21	-3.4	-39	-4%	5	9
O=C(O)c1ccccc1C(=O)NNc1ccc(Cl)cc1	-6.0	-52	?	98	-30
CC(=O)c1ccccc1OC(=O)c1c(F)cccc1F	1.4	/	-3%	2	/
Cc1cc(Nc2ccc(Cl)cc2)nc(NCc2ccccc2)n1	20	-13	?	100	-37
COC(=O)c1cc(NC(=O)CN(c2ccc3c(c2)OCO3)S(C)(=O)=O)ccc1Cl	-3.8	-158	7%	-8	-6
COc1ccccc1NC(=O)C1CCCN(S(=O)(=O)c2ccc3[nH]c(=O)ccc3c2)C1 (stereo not given)	1.1	/	/	1	/
Cc1nc2ccc(C(=O)N/N=C/c3cc([N+](=O)[O-])ccc3O)cc2[nH]1	-0.4	/	3%	8	-4
Cc1ccc(N2C(=O)C3C(c4ccccc4)N4CCCN4C3(C)C2=O)cc1 (stereo not given)	-3.6	-20	-2%	3	-6
CC1CCN(C(=O)c2ccc(COc3ccccc3Cl)o2)CC1	-3.4	0	-3%	10	-25
OCC[C@@H]1C[C@@H](O)[C@H](O)[C@]2(CCc3ccccc3O2)O1	-6.0	/	/	-9	/
O=C(/C=C/c1ccc2c(c1)OCO2)NCc1ccncc1	-0.1	/	2%	2	/

Molecules shown so far containing a thiophene ring, fused or not:
SMILES	RecA splice inh	YopH inh	Mtb growth	Mtb betalactam	Arbovirus inh	others
CCc1sc(C(=O)NC)cc1Br	-0.2	-2	-3%	-15	-2
O=c1c2ccccc2nc2ccc(NCc3cccs3)nn12	/	/	0%	-5	2

Next part
SMILES	RecA splice inh	YopH inh	Mtb growth	Mtb betalactam	Arbovirus inh	others
COc1ccc(S(=O)(=O)N2CCCCCC2)cc1C(=O)OCc1c(C)noc1C	/	-11	12%	-8	-5
COc1ccc(S(=O)(=O)N2CCN(C3CCN(Cc4ccccc4)CC3)CC2)cc1	-2.5	-41	9%	3	-6
O=C(CNS(=O)(=O)c1ccccc1)N/N=C\c1ccc(Cl)cc1	-0.4	-23	3%	-8	-1
Cc1ccc(S(=O)(=O)NCC(=O)N(CC2CCCO2)C(C(=O)NC2CCCCC2)C(C)C)cc1 (stereo not given)	0.5	/	/	-3	/
CCCNC(=O)CCn1c(-c2ccc(C)cc2)cc(C(=O)OCC)c1C	1.7	-9	3%	0	-3
CCC(C)(O)c1[nH]c2ccc(C(=O)OC)cc2c1C (stereo not given)	0.7	/	/	-3	/
O=C(NC1CCCN(c2ccc(C(F)(F)F)cn2)C1)c1ccnc(Cl)c1 (stereo not given)	1.2	/	/	?	/
Nc1nc(NCc2ccco2)nc(N2CCCC2)c1[N+](=O)[O-]	2.5	/	23%	-5	/
COc1ccc(NC(=O)C(=O)NCC(=O)Nc2cccc(C(F)(F)F)c2)cc1	-5.8	/	-6%	5	-10
Cc1ccc(S(=O)(=O)N2CCN(C(=O)c3ccc([N+](=O)[O-])cc3)C2)cc1	-0.5	/	-3%	0	19
Cc1cc2c(cc1C)N(C(=O)CSc1nncn1C)C(C)(C)c1ssc(=S)c1-2	22	-4	5%	7	-6
CCSc1nnc(-c2ccccc2NC(=O)CC)c(=O)[nH]1	/	0	-6%	-11	-3
CCC(CO)NCc1sccc1C (stereo not given)	0.6	/	-1%	-4	23
Cc1cc(-c2ccc(S(=O)(=O)N(C)Cc3ccccc3)cc2)on1	3.3	/	/	-2	/
Cc1ccc2[nH]c(=O)c(CN(c3cccc(C)c3C)S(=O)(=O)c3ccccc3)cc2c1	-0.9	/	/	-6	/
CCn1c(=O)[nH]c(=O)c2c(N)c(C(=O)c3cc(F)ccc3F)sc21	-6.8	/	-1%	-6	/
COc1ccc(C(=O)c2ccccc2Cl)cc1OC	3.9	/	1%	0	2
Cc1cccc(N2C(=O)c3cccc4c(N5CCCCC5)c([N+](=O)[O-])cc(c34)C2=O)c1C	-12	-16	10%	8	1
O=C(Nc1ccccc1N1CCCCC1)c1cc(S(=O)(=O)N2CCOCC2)ccc1Cl	6.7	/	/	0	/
COc1ccc(/C=C(\C#N)C(=O)OCC(=O)Nc2c(C)cccc2C)cc1	-5.2	-17	-3%	4	-12
COC(=O)Cn1c(C)c(/C=C/c2cc[n+](C)cc2)c2ccccc21	-53	/	/	3	/
CC12CCC(C(=O)NNC(=O)c3ccc(F)cc3)(OC1=O)C2(C)C (stereo not given)	-0.3	/	/	-11	/
COc1cc2c(c(OC)c1OC)-c1ccc(O)cc1[C@@H](NC(C)=O)CC2	-0.1	/	/	-7	/
Cc1nnc2c(-c3ccccc3)nc3ccccc3n12	-0.5	-8	-4%	-5	-4
COC(=O)c1ccc(NC(=O)CSc2nncn2C)cc1	-0.5	-34	-4%	-8	-1
Cc1ccc(C)c2[nH]c(=O)c(CCNC(=O)Cc3cccs3)cc12	0.3	-36	/	-3	-1
COc1ccc(C(=O)Nc2ccc(NS(=O)(=O)c3ccccc3)cc2)cc1OC	1.0	/	-2%	3	/
CCCOC(=O)C1NC(=O)N2C(C(=O)OCCC)C(C)(C)S[C@H]12 (stereo not given in full)	0.2	/	6%	-12	/
O=C(NC1=C(Nc2ccc(F)cc2)C(=O)c2ccccc2C1=O)c1ccc(Cl)cc1	59*	-9	9%	10	-12
CC1CN(C(=O)c2cccs2)CC(C)O1 (stereo not given)	-0.8	/	0%	-7	5
Cc1nn(-c2ccccc2)c(Cl)c1/C=N/NC(=O)OC(C)(C)C	3.5	-19	57%	1	16
O=C(NCCCCc1ccccc1)c1ccc(Br)o1	4.1	-19	3%	3	-18
COc1ccc(OCC(=O)Nc2ccc(S(=O)(=O)Nc3cc(C)nc(C)n3)cc2)cc1	-0.1	-21	1%	22	7
CCOP(=O)(OCC)C(Nc1ccc([N+](=O)[O-])cc1)c1ccc(Cl)cc1 (stereo not given)	5.5	/	12%	-1	9
CCCCNC(=O)c1cc(C)nn1-c1ccccc1	-1.4	/	-3%	-1	/
CCOC(=O)c1sc(NC(=O)Cc2c(F)cccc2Cl)nc1C	-0.7	/	0%	43	-18

A portion of the library, so the mix of outcomes need not match the whole.
